KCNQ2 pot – potentiators of rat KCNQ2 potassium channel. B-score at 10 µM. Potassium voltage-gated channel subfamily KQT member 2 (Rattus norvegicus), O88943. AID 2239, 2010. 310,000 tested, 0.54% active. CHO-K1 KCNQ2, FluxOR thallium flux fluorescence; hits give high values;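 active = fluorescence ratio B-score at least 3 SD of library B-scores, with initial fluorescence B-score within 3 SD, cut at about 5.3 in these data; same plate scores as AID 2156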;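 also: B-score of peak minus minimum over baseline fluorescence ratio after K+ and Tl+ stimulus; positive B-score means potentiation of KCNQ2 with more thallium influx and brighter signal; only the inactives scoring about 0 or higher are listed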
Target sequence (O88943 whole entry, looked up): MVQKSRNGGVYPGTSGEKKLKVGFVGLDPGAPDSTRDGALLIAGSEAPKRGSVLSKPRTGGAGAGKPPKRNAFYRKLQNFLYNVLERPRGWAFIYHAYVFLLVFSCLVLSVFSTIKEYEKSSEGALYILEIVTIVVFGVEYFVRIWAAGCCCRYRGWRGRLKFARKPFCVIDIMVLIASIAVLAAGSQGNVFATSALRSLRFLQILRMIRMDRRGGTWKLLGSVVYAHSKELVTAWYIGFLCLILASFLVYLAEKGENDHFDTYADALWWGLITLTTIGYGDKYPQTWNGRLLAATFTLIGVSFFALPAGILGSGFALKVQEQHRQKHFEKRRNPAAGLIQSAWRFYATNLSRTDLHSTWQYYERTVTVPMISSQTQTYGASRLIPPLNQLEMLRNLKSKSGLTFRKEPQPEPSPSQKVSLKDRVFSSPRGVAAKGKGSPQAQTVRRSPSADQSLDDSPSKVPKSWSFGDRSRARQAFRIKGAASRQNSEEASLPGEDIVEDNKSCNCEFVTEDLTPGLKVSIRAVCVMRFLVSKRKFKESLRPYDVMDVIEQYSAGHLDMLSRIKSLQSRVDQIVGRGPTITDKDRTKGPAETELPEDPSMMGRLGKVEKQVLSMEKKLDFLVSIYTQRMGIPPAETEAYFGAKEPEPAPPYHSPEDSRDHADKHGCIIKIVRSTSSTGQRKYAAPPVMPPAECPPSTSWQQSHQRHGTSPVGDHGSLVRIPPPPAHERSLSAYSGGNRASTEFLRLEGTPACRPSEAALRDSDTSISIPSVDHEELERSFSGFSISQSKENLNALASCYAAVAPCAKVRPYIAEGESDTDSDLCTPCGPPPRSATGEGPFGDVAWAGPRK
KCNQ2 pot baseline – also measured in KCNQ2 pot; calls as there; B-score; compound at 10 µM; measured here: initial fluorescence intensity artifact check;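 brightness before thallium and not channel activity; 0 = typical well and far values either way flag optical interference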
* marks the source's active call; other numbers are inactive results.

entry	SMILES	KCNQ2 pot	KCNQ2 pot baseline
1	CCCCN(CCCC)C(=O)CN(C)S(=O)(=O)c1ccc2c(c1)n(C)c(=O)c(=O)n2C	0.62	0.45
2	COc1ccc(C(=O)CC(=O)C(=O)Nc2ccc(C)c(C)c2)cc1	0.37	-0.59
3	COCCn1ccc2c(OCC(=O)Nc3cc(OC)ccc3OC)cccc2c1=O	0.97	-2.3
4	Nc1cnccc1Oc1cccc(C(F)(F)F)c1	0.39	-1.1
5	O=C(CCc1nc2ccccc2c(=O)[nH]1)N1CCN(S(=O)(=O)c2cccc(F)c2)CC1	0.68	0.17
6	CCOc1ccc(N(CC(=O)NC2CCCCC2)S(=O)(=O)c2ccccc2)cc1	0.35	0.29
7	CC(C)=CCCC1(C)C=Cc2c(c(C)cc3c2[nH]c2cc(O)ccc23)O1 (stereo unspecified)	3.7	-0.19
8	O=C(CSc1nnc(-c2ccoc2)o1)N1CCOCC1	0.07	0.97
9	Cn1nccc1C(=O)N1CCN(c2ccccc2Cl)CC1	0.99	-0.02
10	Cc1cc(=O)[nH]c(SCC(=O)c2c(N)n(C)c(=O)n(C)c2=O)n1	1.6	-0.46

entry	SMILES	KCNQ2 pot	KCNQ2 pot baseline
11	N#Cc1ccc(C(=O)NC2CCCc3ccccc32)cc1 (stereo unspecified)	0.12	-1.3
12	O=C(CNC(=O)c1ccccc1C(=O)O)c1ccccc1	1.1	-0.73
13	COc1cccc(OC)c1C(=O)NNC(=O)c1ccc(F)cc1	0.02	-0.18
14	Cc1ccc(C)c(NC(=O)c2ccc(N(C)S(C)(=O)=O)cc2)c1	0.01	0.08
15	Cc1cc(C(=O)CSc2nc(N)cc(N)n2)c(C)n1-c1cccc(C(F)(F)F)c1	0.13	0.53
16	Cc1ccc(OCCN2C(=O)c3ccccc3C2=O)c([N+](=O)[O-])c1	1.8	-0.08
17	NCCCC[C@H](NC(=O)C1CCNCC1)c1nnc([C@@H](N)CO)o1	0.2	0.4
18	CC(NC(=O)c1ccc(Cl)cc1)c1nnc(SCC(=O)NC2=NCCS2)n1C (stereo unspecified)	0.21	1
19	O=S(=O)(Nc1ccc2cn[nH]c2c1)c1ccc(Cl)s1	0.58	-0.03
20	CCOC(=O)C1=C(N)OC2=C(C(=O)CCC2)C1c1ccccc1OC (stereo unspecified)	1.1	-0.83

entry	SMILES	KCNQ2 pot	KCNQ2 pot baseline
21	O=C(O)CSc1nnc(Cn2c(=O)sc3ccccc32)n1-c1cccc(Cl)c1	1.3	2.5
22	Cc1ccc(C(=O)COC(=O)CNC(=O)Cc2ccccc2)cc1[N+](=O)[O-]	0.06	-0.43
23	COc1cc(S(=O)(=O)N(Cc2cccc(OC)c2OC)CC2CCCO2)ccc1-n1cnnn1 (stereo unspecified)	0.21	0
24	C#CCOCCOCCOCCNc1nc(N2CCN(C(=O)C(Cc3ccc(O)cc3)n3cc(C(N)CC(C)C)nn3)CC2)nc(N2CCN(C(=O)C(Cc3cc4ccccc4[nH]3)n3cc(C(N)C(C)CC)nn3)CC2)n1 (stereo unspecified)	0.44	0.47
25	O=c1c2[nH]c3cccc(Cl)c3c2ncn1CC1CCCO1 (stereo unspecified)	0.65	-0.77
26	CCS(=O)(=O)c1ccc(-c2csc(-c3ccccc3)n2)c(Cl)c1Cl	0.43	0.64
27	CSc1cc(-c2ccco2)oc1C(=O)c1ccco1	1	-3.1
28	Cc1ccc(C(=O)Nc2nnc(S(=O)(=O)N3CCCCCC3)s2)cc1	1.2	0.17
29	Cc1cc(C)n(CC(O)Cn2c3ccccc3c3ccccc32)c(=O)n1 (stereo unspecified)	1.3	-0.31
30	O=C(CSc1nc2ccccc2[nH]1)N1CCN(C(=O)c2ccco2)CC1	2.1	0.35

entry	SMILES	KCNQ2 pot	KCNQ2 pot baseline
31	Cn1cnc2cc(OC(=O)c3ccccc3)ccc21	0.07	-0.19
32	CC1CCN(C(=O)c2ccc3c(c2)OCO3)CC1	0.2	0.84
33	CCCCNC(=S)NNC(=O)c1ccoc1C	0.36	0.28
34	Cc1cc(O)c(-c2cc(O)c(C)cc2O)cc1O	1.5	-1
35	Cn1cnc(S(=O)(=O)N2CCN(C(c3ccc(F)cc3)c3ccc(F)cc3)CC2)c1	0.36	0.75
36	COc1ccc(C(CNC(=O)Nc2ccc(Cl)cc2)N2CCN(C)CC2)cc1 (stereo unspecified)	0.28	-1.6
37	COc1cc(C(=O)Nc2scc(-c3ccccc3)c2C(=O)O)cc(OC)c1OC	2.6	-0.51
38	Cc1cc(C)cc(NC(=O)C2CCCN2S(=O)(=O)c2ccc3c(c2)n(C)c(=O)c(=O)n3C)c1 (stereo unspecified)	0.82	0.62
39	Cc1cc(=O)n2[nH]c(CCC(=O)O)nc2n1	0.53	-0.36
40	Cc1ccccc1NC(NC(=O)c1cccnc1)C(Cl)(Cl)Cl (stereo unspecified)	1.7	-0.24

entry	SMILES	KCNQ2 pot	KCNQ2 pot baseline
41	CCOc1ccc(/C=C(/NC(=O)c2ccc(Cl)cc2)C(=O)O)cc1OCC	0.5	-1.2
42	CCOC(=O)c1ccc(NC(=O)CCSCCc2ccccn2)cc1	1.6	0.64
43	CCOC(=O)C1(Cc2cccc(F)c2)CCN(Cc2cnn(CC)c2C)CC1	0.54	3
44	COc1ccccc1NC(=O)COc1ccc(/C=N/NC(=O)CSCc2ccc(Cl)cc2)cc1	0.89	-0.95
45	OC(COC(c1ccc(F)cc1)c1ccc(F)cc1)CN1CCCC1 (stereo unspecified)	0.09	-0.67
46	COc1cccc(-c2cc(C(F)(F)F)n3ncc(C(=O)O)c3n2)c1	1.9	0.99
47	Cc1ccc(F)cc1NC(=O)CCC(=O)c1cccs1	0.95	0.84
48	COc1ccc(Cl)cc1NC(=O)NCc1ccccn1	0.67	1.9
49	CCc1cc(C)cc(OCCNC(=O)c2ncn[nH]2)c1	0.02	-0.03
50	Cc1ccc(CCNC(=O)C2CCC(=O)N2Cc2cccnc2)cc1 (stereo unspecified)	1.8	0.68

entry	SMILES	KCNQ2 pot	KCNQ2 pot baseline
51	CCc1cccc(NC(=O)c2ccc3c(=O)n4c(nc3c2)CCCCC4)c1	1.3	1.7
52	Cc1c(NC(=O)Nc2ccccc2)cccc1[N+](=O)[O-]	2.1	-3
53	CSc1nsc(NC(=O)Nc2ccccc2)n1	0.72	1.6
54	CCc1c(C)nc2ncnn2c1N1CCCC(C(=O)Nc2ccc(NC(C)=O)cc2)C1 (stereo unspecified)	0.16	-1.4
55	CC(C)N=C(Nc1ccccc1)c1cccnc1	1	2
56	CCOC(=O)c1c(N)sc2c1CCN(CCc1ccccc1)C2	1.4	-0.67
57	CCC(CC)C(=O)NCCN1CCN(C(=O)C(CC)CC)CC1	0.83	0.26
58	COc1ccc(Cl)cc1N(CC(=O)N1CCCCCC1)S(C)(=O)=O	0.01	0.1
59	CC(C)COC(=O)Nc1nnc(SCCOc2ccccc2)s1	0.17	-0.36
60	Cc1onc(-c2ccccc2)c1C(=O)n1cccn1	1.5	0.32

Compounds from the list above that contain a COOH group, in the order listed:
entry	SMILES	KCNQ2 pot	KCNQ2 pot baseline
12	O=C(CNC(=O)c1ccccc1C(=O)O)c1ccccc1	1.1	-0.73
21	O=C(O)CSc1nnc(Cn2c(=O)sc3ccccc32)n1-c1cccc(Cl)c1	1.3	2.5
37	COc1cc(C(=O)Nc2scc(-c3ccccc3)c2C(=O)O)cc(OC)c1OC	2.6	-0.51
39	Cc1cc(=O)n2[nH]c(CCC(=O)O)nc2n1	0.53	-0.36
41	CCOc1ccc(/C=C(/NC(=O)c2ccc(Cl)cc2)C(=O)O)cc1OCC	0.5	-1.2
46	COc1cccc(-c2cc(C(F)(F)F)n3ncc(C(=O)O)c3n2)c1	1.9	0.99

The listing continues.
entry	SMILES	KCNQ2 pot	KCNQ2 pot baseline
61	CC12CCC(=O)N1C(C(=O)N1CCN(S(=O)(=O)c3cccc(Cl)c3)CC1)CS2 (stereo unspecified)	1.8	-0.47
62	CCOCCCNC(=O)C(Cc1ccccc1)NS(=O)(=O)c1cccc2nsnc12 (stereo unspecified)	1.1	-0.27
63	Cc1ccc(OCC(=O)Nc2ccc([N+](=O)[O-])cc2)cc1	0.78	-0.59
64	CCC1CCCCN1CCCNC(=O)CSc1nc2nc(C)c(Cc3ccccc3)c(C)n2n1 (stereo unspecified)	1.4	-1.1
65	Cc1ccc(CNC(=O)CCNS(=O)(=O)c2ccc(C)cc2)cc1	1.2	-0.04
66	CC(C)c1ccc(NC(=O)CCC(=O)NCc2ccco2)cc1	1	-1.5
67	CCOC(=O)c1sc2ncn(C(C)C(=O)OCC)c(=O)c2c1C (stereo unspecified)	0.01	0.55
68	CCCN1CCN(CC(=O)Nc2nncs2)CC1	0.02	0.58
69	CCn1c(SCC(=O)NCCc2ccc(OC)c(OC)c2)nc2c1c(=O)n(C)c(=O)n2C	0.02	0.85
70	O=C(NNS(=O)(=O)c1ccccc1F)c1ccccc1-n1cccc1	0.34	0.03

entry	SMILES	KCNQ2 pot	KCNQ2 pot baseline
71	O=C(Cn1nc([N+](=O)[O-])nc1Br)NC(c1ccccc1)c1ccccc1	0.58	-0.51
72	Brc1cc2c(cc1Cn1c(-c3cncs3)nc3ccccc31)OCO2	0.57	1.4
73	CC1CCCCN1C(=O)CSc1nc2c(c(=O)n(C)c(=O)n2C)n1C (stereo unspecified)	0.54	-0.01
74	COc1nccnc1NS(=O)(=O)c1ccc(NCc2ccccc2O)cc1	1.2	0.7
75	O=C(CCN1CCOCC1)N1CCCC(Nc2cccc(F)c2)C1 (stereo unspecified)	0.83	0.03
76	CCCCOC(=O)CCNc1n[nH]c(=O)[nH]c1=O	0.17	0.47
77	O=[N+]([O-])c1cccc(N/N=C/c2cccc3ccccc23)c1	0.82	0.94
78	COC(=O)NC(C)N1C(=O)C2C3C=CC(C3)C2C1=O (stereo unspecified)	1.3	-0.59
79	Cc1nn2c(-c3ccc(F)cc3)ccnc2c1Br	0.07	0.55
80	Cc1cc2nc(-c3ccc[nH]c3=O)n(Cc3ccc(F)cc3)c2cc1C	0.05	0.44

entry	SMILES	KCNQ2 pot	KCNQ2 pot baseline
81	CN1CCN(c2nc3c(c(=O)n(C)c(=O)n3C)n2Cc2ccc(F)cc2)CC1	0.8	1.3
82	Cc1cc(F)ccc1NC(=O)CCCN(C)S(=O)(=O)c1ccc(F)cc1	1.6	-2.7
83	CNC(=S)Nc1cccc(Cl)c1C	1.3	-2.9
84	Cc1ccc(NC(=S)N2CCN(c3ccccn3)CC2)c(C)c1	2.1	-0.63
85	O=C(O)c1ccc(Nc2nc3ccc(Cl)cc3[nH]2)cc1	0.55	-1.5
86	COc1ccc(OC)c(CC(NC(C)=O)C(=O)NC2CCN(S(=O)(=O)c3ccc(NC(C)=O)cc3)CC2)c1 (stereo unspecified)	1.3	0.21
87	Cc1cc(C)n2nnnc2c1C#N	2.2	-0.26
88	Cc1nnc(NC(=O)C23CC4CC(C)(CC(C)(C4)C2)C3)s1	0.69	-0.33
89	COc1ccc(/C(C)=N/NC2=NCCN2)cc1Cl	0.84	-1.1
90	CCCS(=O)(=O)N1CCN=C1SCc1cccnc1	0.01	-0.54

entry	SMILES	KCNQ2 pot	KCNQ2 pot baseline
91	CCc1nnc(SCc2cn3c(C)cc(C)nc3n2)n1N	0.87	1.1
92	Cc1nnsc1C(=O)Nc1ccc(S(=O)(=O)N2CCCCC2C)cc1 (stereo unspecified)	0.01	-0.73
93	CC(C)CC(=O)NC(=S)Nc1ccc(NC(=O)c2ccco2)cc1	1.7	3.2
94	Cc1ccc(NCC(=O)N/N=C\c2ccc[nH]2)cc1	0.02	0.14
95	Cc1cc(C)n(S(=O)(=O)c2cccc(Cl)c2Cl)n1	1.3	-1.2
96	Cc1ccc(-c2nnn(CCOc3cccc(Br)c3)n2)cc1	0.66	0.04
97	O=C(NCCCN1CCOCC1)c1ccc2c(=O)n(Cc3ccc(Cl)cc3)c(=S)[nH]c2c1	0.11	-0.31
98	COc1cccc(/C=N/NC(=O)CCn2nnc3ccccc32)c1	0.71	-1.5
99	CCO[C@@H]1OC(C(=O)Nc2ccccc2)=C[C@H](c2ccc(Br)cc2)[C@H]1CCCO	0.97	0.73
100	CCOC(=O)N1CCC(n2c(=S)[nH]c3ccccc3c2=O)CC1	0.02	-0.53

entry	SMILES	KCNQ2 pot	KCNQ2 pot baseline
101	CC(=O)c1ccc(NC(=O)C(C)OC(=O)c2cccc(-n3cnnn3)c2)cc1 (stereo unspecified)	0.27	0.07
102	Cc1ccc(Cn2c(C(=O)NCCCN3CCOCC3)cc3sccc32)cc1	0.53	-1.9
103	COC(=O)c1nnn(CC(=O)Nc2cccc(Cl)c2)c1C(=O)OC	1.2	-2.1
104	Cc1cccc(-n2c(O)c(C=Nc3cccc(O)c3)c3ccccc3c2=O)n1	0.51	-1.4
105	Cc1ccc(C(=O)NC(C)c2ccc(-n3ccnc3)cc2)cc1S(=O)(=O)N1CCOCC1 (stereo unspecified)	0.77	-0.23
106	COc1ccc(NC(=O)C(=O)NCCC2=CCCCC2)c(OC)c1	0.33	-3.4
107	COc1ccc(C(=O)n2nc(-c3ccco3)nc2N)cc1OC	1.7	-1.8
108	CN(C(=O)C1CC1)C1CCS(=O)(=O)C1 (stereo unspecified)	1.4	-0.01
109	O=C(c1ccco1)N1CCN(C(=O)C2CCCN(S(=O)(=O)Cc3ccccc3)C2)CC1 (stereo unspecified)	0.88	0.28
110	Cc1cc(/C=C2\NC(=S)NC2=O)c(C)n1-c1cccnc1	0.29	0.61

entry	SMILES	KCNQ2 pot	KCNQ2 pot baseline
111	CSc1ccccc1NC(=O)CN1CCCCC1C (stereo unspecified)	0.02	-1.1
112	COc1ccc(/C=N/NC(=O)c2ccn[nH]2)cc1Cn1nc(C)c([N+](=O)[O-])c1C	0.53	-1.4
113	COc1ccc(C(=O)COC(=O)CCN=C2NS(=O)(=O)c3ccccc32)cc1OC	0.04	-0.75
114	CCOc1ccc(-n2c(C)cc(/C=N\NC(=O)CC(=O)NC3CCCCC3)c2C)cc1	2.3	-1.5
115	COc1ccc(/C(O)=C2/C(=O)C(=O)N(c3ncccn3)C2c2ccc(F)cc2)cc1 (stereo unspecified)	0.75	-0.14
116	NC1=NC[C@@H](Cc2ccc(O)cc2)N1CC1CCCCC1	1.2	-0.06

The list is partial; the hit share may differ from the screen's.
